Bioassay records: PubChem, National Center for Advancing Translational Sciences (NCATS)
Menin-MLL FL inh – displaces fluorescein MLL peptide from human menin; Fluorescence polarization, fluorescein-MLL peptide displacement from menin; FP activity change, % at 61.4 µM; 290,000 tested, under 10 active; inconclusive = falling polarisation curve, or a change in total fluorescence; inactive = total fluorescence flat and polarisation flat or rising; no compound was filed as active; the % refers to the polarisation; negative = inhibition;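 further: % of control where 0% means no effect; inhibitors lower the polarisation; unlabelled MLL peptide was the positive control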
Sfp inh – Sfp phosphopantetheinyl transferase inhibition | Q9F4F7 | Biochemical Sfp PPTase activity, qHTS | Potency, µM, for inactives: max response, negative = inhibition, hits mostly inhibitors | actives 3.5% (n = 310,000); active means well fitted inhibition curve with a large enough effect; inconclusive means small, poorly fitted or top-dose-only effect, or another doubt; inactive means no such curve, though single readings can be large or run the other way;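 further: the enzyme is Sfp with the accession as filed and its product quenches rhodamine fluorescence; potency means the concentration at half of the fitted maximal effect; 0% = enzyme reaction without inhibitor and -100% = no enzyme wells; top concentration of the series not given in the record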
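Sfp 15 nM + cpd, 15 min RT; start w/ rhodamine-CoA 5 uM, BHQ-2-YbbR 12.5 uM (final); 50 mM Hepes pH 7.6, 10 mM MgCl2, 0.01% NP-40, 0.01% BSA; read 525/598 nm at 0 and 30 min.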
Active calls of the source: *; ? = inconclusive; & = joins results of further samples; [ ] = remark or other dose. This is a subset, so the mix of outcomes need not match the whole.

Start of the listing, in advance:
> CO[C@@H]1COC(=O)[C@H]2CCCN2C(=O)[C@@H](C)COC(=O)[C@H](COCc2ccccc2)NC(=O)C/C=C\[C@H]1C
  Menin-MLL FL inh: -4.0[11.7 µM] | Sfp inh: 6.8%
> COc1cc(/C=C/C(=O)c2c(O)cc(C)oc2=O)ccc1O
  Menin-MLL FL inh: ? | Sfp inh: ?
> Oc1cccc(O)c1
  Menin-MLL FL inh: 0.5&-1.5 | Sfp inh: -1.2%&6.3%
> COc1ccc(OC)c(-c2nnc3n2N=C(c2c(OC)cccc2OC)CS3)c1
  Menin-MLL FL inh: 2.2 | Sfp inh: 1.2%

The listing, from the start:
> CO[C@@H]1COC(=O)[C@H]2CCCN2C(=O)[C@@H](C)COC(=O)[C@H](COCc2ccccc2)NC(=O)C/C=C\[C@H]1C
  Menin-MLL FL inh: -4.0[11.7 µM] | Sfp inh: 6.8%
> COc1cc(/C=C/C(=O)c2c(O)cc(C)oc2=O)ccc1O
  Menin-MLL FL inh: ? | Sfp inh: ?
> Oc1cccc(O)c1
  Menin-MLL FL inh: 0.5&-1.5 | Sfp inh: -1.2%&6.3%
> COc1ccc(OC)c(-c2nnc3n2N=C(c2c(OC)cccc2OC)CS3)c1
  Menin-MLL FL inh: 2.2 | Sfp inh: 1.2%
> CC(C)(C)NC[C@H](O)c1cc(O)cc(O)c1
  Menin-MLL FL inh: -10.9[24.8 µM] | Sfp inh: 17.7%
> CCCCC[C@H](O)/C=C/C=C\C/C=C\CCCCC(=O)O
  Menin-MLL FL inh: -0.4 | Sfp inh: 17.9%
> CCOC(=O)COc1ccc2c(C)c(CCN(CC)CC)c(=O)oc2c1Cl
  Menin-MLL FL inh: -6.2&-0.9 | Sfp inh: 5.3%&18.2%
> O=c1[nH]c(=O)n(C2CC(O)C(CO)O2)cc1C(F)(F)F (stereo unspecified)
  Menin-MLL FL inh: -0.6 | Sfp inh: 16.1%
> COC(=O)N1C2CC3(C)C=C(C)OC1(C)C3c1ccccc12 (stereo unspecified)
  Menin-MLL FL inh: 3.1[11.7 µM] | Sfp inh: 19.1%
> COc1cccc2c1OC(=O)CC2c1ccccc1C (stereo unspecified)
  Menin-MLL FL inh: -2.4[94.6 µM] | Sfp inh: -11.0%
> Fc1ccccc1-c1nc(-c2ccccc2)oc1NC1CCCCC1
  Menin-MLL FL inh: 5.1 | Sfp inh: -15.3%
> CO/N=C\c1ccc(C(=O)N2[C@H](c3ccc(C)cc3)[C@@H](C)CC[C@H]2C(=O)OC)cc1
  Menin-MLL FL inh: -0.3[11.7 µM] | Sfp inh: 14.6%
> Cc1cc(C)c2c(-c3ccc(-c4ccc(C(F)(F)F)cc4)cc3)cc(=O)oc2c1
  Menin-MLL FL inh: -1.2 | Sfp inh: -23.6%
> OCC1OC([S-])[C@H](O)C(O)C1O.[Au+] (stereo partly specified)
  Menin-MLL FL inh: -1.1 | Sfp inh: 2.24µM*
> C/C(CCN1CCCc2nc(C)c(C)cc21)=N\O[C@@H](C)c1cn([C@@H]2COC[C@@H]2O)nn1
  Menin-MLL FL inh: -3.5[11.7 µM] | Sfp inh: -3.7%

Part of the list above, in markdown.
| structure | Menin-MLL FL inh | Sfp inh |
| --- | --- | --- |
| COC(=O)N1C2CC3(C)C=C(C)OC1(C)C3c1ccccc12 (stereo unspecified) | 3.1[11.7 µM] | 19.1% |
| COc1cccc2c1OC(=O)CC2c1ccccc1C (stereo unspecified) | -2.4[94.6 µM] | -11.0% |

Other compounds follow.
> CC(=O)Nc1c(N)[nH]c(=O)n(C)c1=O
  Menin-MLL FL inh: 8.3 | Sfp inh: 9.5%
> CCCCC[C@H](O)CC[C@H]1[C@H](O)CC(=O)[C@@H]1CCCCCCC(=O)O
  Menin-MLL FL inh: -4.3 | Sfp inh: 16.5%&-5.8%
> COC(=O)[C@@H]1CCCN1C(=O)[C@@H](C)CO
  Menin-MLL FL inh: 3.5[11.7 µM] | Sfp inh: 1.0%
> CSCC[C@H](NC(=O)[C@H](Cc1ccccc1)NC(=O)[C@H](Cc1cnc[nH]1)NC(=O)CNC(=O)[C@@H](NC(=O)[C@H](C)NC(=O)[C@H](Cc1c[nH]c2ccccc12)NC(=O)[C@H](CC(C)C)NC(=O)[C@H](CC(N)=O)NC(=O)CN)[C@@H](C)O)C(N)=O
  Menin-MLL FL inh: -6.0 | Sfp inh: -3.3%
> CC(C)=CCCC1(C)C=Cc2c(c(C)cc3c2[nH]c2ccccc23)O1 (stereo unspecified)
  Menin-MLL FL inh: 0.0 | Sfp inh: 18.5%
> CCC(=O)O[C@@H](OP(=O)(CCCCc1ccccc1)CC(=O)N1C[C@H](C2CCCCC2)C[C@H]1C(=O)O)C(C)C (stereo partly specified)
  Menin-MLL FL inh: 0.6 | Sfp inh: -8.2%
> C=CCC(C)(O)C(=O)OCC (stereo unspecified)
  Menin-MLL FL inh: 1.5 | Sfp inh: 8.8%
> C[C@H]1COC(=O)O1
  Menin-MLL FL inh: -3.0 | Sfp inh: 31.5%[activator]
> C[C@@](N)(C(=O)O)c1cccc(CC(=O)O)c1
  Menin-MLL FL inh: 0.0 | Sfp inh: ?
> OC1CCC2Cc3ccccc3N=C12 (stereo unspecified)
  Menin-MLL FL inh: 35.9[activator] | Sfp inh: 2.5%
> COC(=O)[C@H](C)NC(=O)C/C=C\[C@@H](C)CO
  Menin-MLL FL inh: -0.9[11.7 µM] | Sfp inh: 2.8%
> CCCCCCCCCCCCCCCCCC(=O)NCCc1ccc(O)c(O)c1
  Menin-MLL FL inh: 3.4 | Sfp inh: 25.9%
> CCN(CC)CCCCn1c(-c2ccccc2)nc2c(NCCOC)nc(C)nc21
  Menin-MLL FL inh: 3.6 | Sfp inh: 21.1%
> COC(=O)[C@@]1(Cc2ccc(OC)cc2)[C@H]2c3cc(C(=O)N(C)C)n(Cc4ccc(S(C)(=O)=O)cc4)c3C[C@H]2CN1C(=O)c1ccccc1
  Menin-MLL FL inh: 1.5 | Sfp inh: 11.0%
> COc1ccccc1/C=C\C(=O)O
  Menin-MLL FL inh: 0.1 | Sfp inh: 35.8%

Some of these compounds in order of number of heavy atoms, highest first.
> CCCCCCCCCCCCCCCCCC(=O)NCCc1ccc(O)c(O)c1
  Menin-MLL FL inh: 3.4 | Sfp inh: 25.9%
> CC(=O)Nc1c(N)[nH]c(=O)n(C)c1=O
  Menin-MLL FL inh: 8.3 | Sfp inh: 9.5%
> C=CCC(C)(O)C(=O)OCC (stereo unspecified)
  Menin-MLL FL inh: 1.5 | Sfp inh: 8.8%
> C[C@H]1COC(=O)O1
  Menin-MLL FL inh: -3.0 | Sfp inh: 31.5%[activator]

(continued)
> O=C(/C=C(\O)c1ccccc1)c1ccccc1O
  Menin-MLL FL inh: 1.6 | Sfp inh: -5.5%
> Cc1cc(CNC(=O)[C@@H]2C[C@H]2[C@@H](NP(=O)(c2ccccc2)c2ccccc2)c2ccccc2)nn1C
  Menin-MLL FL inh: 2.2 | Sfp inh: 7.5%
> CC(C)C[C@@H](CC(=O)N[C@@H](CCC(=O)O)CC(=O)O)NC(=O)[C@@H]1CNCC[C@H]1NC(=O)C[C@@H](NC(=O)C[C@H](CO)NC(=O)[C@@H]1CCCC[C@H]1N)C(C)C
  Menin-MLL FL inh: -6.8 | Sfp inh: 2.0%
> CCOc1nc2cccc(C(=O)OC(C)OC(=O)OC3CCCCC3)c2n1Cc1ccc(-c2ccccc2-c2nn[nH]n2)cc1 (stereo unspecified)
  Menin-MLL FL inh: 5.6 | Sfp inh: -32.6%
> O[C@@](CCN1CCCC1)(c1ccccc1)C1CCCCC1
  Menin-MLL FL inh: 5.0[24.8 µM] | Sfp inh: 13.0%
> CCOC(=O)c1cccnc1
  Menin-MLL FL inh: -24.2 | Sfp inh: 11.5%
> CC(=O)OC[C@@H]1O[C@@H](O/N=C2/C[C@@H](O)[C@@H](O)[C@@H]3[C@@H]4C(=O)N([C@@H](C)c5ccccc5)C(=O)[C@H]4CC[C@@H]23)[C@H](OC(C)=O)[C@H](OC(C)=O)[C@@H]1OC(C)=O
  Menin-MLL FL inh: -4.7[11.7 µM] | Sfp inh: 10.3%
> O=c1n(Cc2cc3c(cc2Cl)OCO3)c(=O)n2n1CC[C@H]1/C(=N\OC[C@@H](O)COCc3ccco3)[C@H]3O[C@@H]3[C@@H](O)[C@@H]12
  Menin-MLL FL inh: -2.9[11.7 µM] | Sfp inh: 18.1%
> C=CCC(C)(O)c1ccc(OC)cc1 (stereo unspecified)
  Menin-MLL FL inh: -10.0 | Sfp inh: -4.5%
> O=C1Nc2ccccc2C(=O)N2CCC[C@@H]12
  Menin-MLL FL inh: 1.5 | Sfp inh: 0.2%
> NCCNS(=O)(=O)c1ccc(Cl)c2ccncc12
  Menin-MLL FL inh: -2.4 | Sfp inh: -9.1%
> Cc1ccc(C(C)(C)c2ccc(C)cc2)cc1
  Menin-MLL FL inh: -2.5 | Sfp inh: 12.2%
> CCCCC[C@H](O)C=C[C@H]1[C@H](O)CC(=O)[C@H]1CCCCCCC(=O)O
  Menin-MLL FL inh: ? | Sfp inh: 18.3%
> COc1ccc(C2=Nn3c(nnc3-c3ccccc3C)SC2)cc1OC
  Menin-MLL FL inh: -6.8 | Sfp inh: 5.0%
> COc1ccc(-c2nc(-c3ccccc3)c(Nc3c(C)cccc3C)o2)cc1
  Menin-MLL FL inh: 3.6 | Sfp inh: -14.0%

> C(#CC1C=CC2OC(c3ccccc3)OCC2O1)c1ccccc1 (stereo unspecified)
  Menin-MLL FL inh: -0.4[11.7 µM] | Sfp inh: -11.0%
> CC(=O)N(OCc1ccccc1)[C@@H]1c2cc(C#N)ccc2OC(C)(C)[C@H]1O
  Menin-MLL FL inh: 0.4 | Sfp inh: 17.2%
> c1ccc(CN2CCC3(CCc4ccccc43)CC2)cc1
  Menin-MLL FL inh: -14.0 | Sfp inh: 29.5%&-2.5%
> COC(=O)C1=C(C)N(Cc2ccccc2)C2=C3C(=O)N(c4ccccc4)C(=O)C3[C@@](O)(C(=O)OC)C(=O)N2C1c1ccccc1 (stereo partly specified)
  Menin-MLL FL inh: -0.9&-0.3[11.7 µM] | Sfp inh: 11.7%&11.3%
> CCCCC/C=C\C/C=C\CCCCCCCC(=O)NCCc1ccc(O)c(O)c1
  Menin-MLL FL inh: 0.3 | Sfp inh: 10.0%
> C=C(c1ccc(C(=O)O)cc1)c1cc2c(cc1C)C(C)(C)CCC2(C)C
  Menin-MLL FL inh: -5.0 | Sfp inh: -21.0%
> O=C(O)c1ccccc1Nc1cc(Cl)cc(Cl)c1
  Menin-MLL FL inh: -1.2 | Sfp inh: 11.6%
> COc1ccc2c(c1)O[C@H](c1cccc(C(F)(F)F)c1)[C@@H](O)C2=O
  Menin-MLL FL inh: -0.5[11.7 µM] | Sfp inh: 19.3%
> C/C(CCN1CCCCc2nc(C)c(C)cc21)=N\OC[C@@H](C)[C@H](OCc1ccccc1)C(C)C
  Menin-MLL FL inh: 2.3[11.7 µM] | Sfp inh: 18.4%
> CCCCCCCC1=Cc2ccccc2C(C(C(C)=O)C(=O)OC)N1C(=O)OC (stereo unspecified)
  Menin-MLL FL inh: -1.1[11.7 µM] | Sfp inh: -8.6%
> COc1ccc(CN(CCN(C)C)c2ncccn2)cc1
  Menin-MLL FL inh: 1.0 | Sfp inh: 13.8%
> O=c1cc(-c2cccc(O)c2)oc2ccc(O)cc12
  Menin-MLL FL inh: -12.9 | Sfp inh: -4.3%
> CCCC(=O)Nc1ncnc2c1ncn2C1OC2COP(=O)(O)OC2C1OC(=O)CCC (stereo unspecified)
  Menin-MLL FL inh: 2.1 | Sfp inh: 12.4%
> O=C(NC1CCN(Cc2ccccc2)CC1)c1ccc(I)cc1
  Menin-MLL FL inh: 1.6 | Sfp inh: -0.9%&-17.8%
> COc1cc(N[C@@H](C)CCCN)c2ncccc2c1
  Menin-MLL FL inh: 2.2[24.8 µM] | Sfp inh: 1.7%
> COc1ccc2ccccc2c1-c1c(OC)ccc2ccccc12
  Menin-MLL FL inh: 0.1&0.0 | Sfp inh: 13.0%&1.2%

One compound at a time (already shown).
O=C(NC1CCN(Cc2ccccc2)CC1)c1ccc(I)cc1 as listed: Menin-MLL FL inh: 1.6; Sfp inh: -0.9%&-17.8%
CCCC(=O)Nc1ncnc2c1ncn2C1OC2COP(=O)(O)OC2C1OC(=O)CCC (stereo unspecified) as listed: Menin-MLL FL inh: 2.1; Sfp inh: 12.4%
